Screening data deposited in PubChem BioAssay by several laboratories.
HIV Env fusion – blocks HIV Env-driven cell-cell fusion | HeLa-JRFL Env/CEM21 cell fusion, luciferase | inhibition, % at 12.3 µM | actives 1.1% (n = 360,000);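 active = mean replicate inhibition score of at least 50 and every replicate individually at or above 50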;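 also: 0% = plate neutral controls and 100% = maraviroc near 300 nM; one replicate is shown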
PABP polyA inh – PABP-poly(A) binding inhibition; actives 1% (n = 290,000); P11940; inhibition, % at 35 µM; PABP-poly(A) RNA binding, fluorescence polarization;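 active = 50% or more with normal probe brightness, or confirmed in later tests; about a fifth of its hits are not listed in these tables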;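 also: calls also rest on retests at 20 µM and on dose response follow-up; controls were probe without protein and protein plus probe with vehicle; some compounds called inactive have numbers as strong as hits; many hits fall short of the cut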
Target sequence (P11940 whole entry, looked up): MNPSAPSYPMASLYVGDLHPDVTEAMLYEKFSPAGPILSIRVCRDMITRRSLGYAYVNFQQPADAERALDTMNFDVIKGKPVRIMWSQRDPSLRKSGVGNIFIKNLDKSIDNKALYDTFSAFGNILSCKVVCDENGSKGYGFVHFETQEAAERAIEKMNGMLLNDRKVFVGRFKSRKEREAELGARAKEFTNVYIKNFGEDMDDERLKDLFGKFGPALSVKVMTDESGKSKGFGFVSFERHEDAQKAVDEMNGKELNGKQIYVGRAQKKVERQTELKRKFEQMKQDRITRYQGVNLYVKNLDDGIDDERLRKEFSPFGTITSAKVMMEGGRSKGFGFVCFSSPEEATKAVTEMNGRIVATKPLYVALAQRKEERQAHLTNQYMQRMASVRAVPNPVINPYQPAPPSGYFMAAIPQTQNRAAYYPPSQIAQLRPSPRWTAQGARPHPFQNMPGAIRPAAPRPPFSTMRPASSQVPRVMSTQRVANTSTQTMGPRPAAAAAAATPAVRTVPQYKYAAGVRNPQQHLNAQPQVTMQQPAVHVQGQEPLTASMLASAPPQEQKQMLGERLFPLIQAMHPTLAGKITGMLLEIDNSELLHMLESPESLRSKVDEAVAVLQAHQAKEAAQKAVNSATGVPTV
CSC inhib – cancer stem cell inhibition. cancer stem cell-like cells viability, luminescence. actives 1.1% (n = 300,000). inhibition, % at 7.5 µM. AID 2717;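 active = mean at 75% or more and at least half the replicates too; tested in HMLE shEcad cells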;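 also: 0% = median of negative and 100% = median of positive control wells; the first replicate is given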
UUG fidelity – yeast start codon fidelity modulation. S. cerevisiae UUG-firefly luciferase reporter, luminescence/redox ratio. actives 0.13% (n = 350,000). AID 602363. activity score, % at 18.7 µM;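 active = replicate mean at a twofold rise or more, about +100% in these data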;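 also: firefly luciferase made from a UUG start codon reports start codon fidelity; reporter light over untreated wells divided by growth signal over untreated wells; some hits fall short of that in this replicate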
MT1-MMP act inh – MT1-MMP (human) activation inhibition. P50281. HT1080 RFP-PRO-GFP cells, GFP/RFP ratio fluorescence, overnight; percent of plate control window, DMSO zero. GFP/RFP ratio change, % at 20 µM. actives 0.061% (n = 360,000). AID 651647;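 active = GFP/RFP ratio change of at least 30% with cell ATP level not reduced by more than half and red fluorescence within 50% of control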; also: strong numbers were not always called active
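Compound: 20 µM single dose, 1% DMSO / System: HT1080 RFP-PRO-GFP cells / Controls: DMSO and RFP-L50D-GFP cell wells / Read-out basis: GFP/RFP fluorescence ratio / Schedule: overnight compound exposure at 37 °C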
eIF4H FP inh – inhibitors of RNA binding by human eIF4H; Q15056; eIF4H fluorescence polarization binding assay; inhibition, % at 35 µM; actives 0.94% (n = 290,000); AID 2012;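 active = 50% or more with normal probe brightness, or confirmed in later tests; about a fifth of its hits are not listed in these tables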;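 also: calls also rest on retests at 20 µM and on dose response follow-up; 0% = protein and probe with vehicle and 100% = probe without protein; strong numbers were not always called active; many hits fall short of the cut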
Rce1 inhib – blocks yeast Ras-converting enzyme; Q03530; yeast membranes, quenched prenylated peptide cleavage fluorescence; calls only; actives 0.27% (n = 290,000);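 active = fall in fluorescence gain of 50% or more versus controls, with final raw signal at or below 3038400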;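 also: plate controls were neutral control wells for no effect and wells lacking membranes for full effect; tested at 10 µM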
Target sequence (Q03530 whole entry, looked up): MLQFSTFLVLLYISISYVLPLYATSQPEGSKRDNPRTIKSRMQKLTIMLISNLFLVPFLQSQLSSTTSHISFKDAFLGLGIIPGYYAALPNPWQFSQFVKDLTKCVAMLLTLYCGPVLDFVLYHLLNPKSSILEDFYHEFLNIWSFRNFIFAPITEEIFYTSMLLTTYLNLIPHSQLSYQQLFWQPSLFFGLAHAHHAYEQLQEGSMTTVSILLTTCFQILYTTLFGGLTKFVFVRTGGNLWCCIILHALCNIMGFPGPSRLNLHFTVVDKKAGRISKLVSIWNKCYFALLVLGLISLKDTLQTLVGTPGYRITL
eIF4H FP inh retest – recorded beside eIF4H FP inh, whose call it bears; inhibition, %; compound at 20 µM; confirmation average;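 mean of two retest wells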
PABP polyA inh retest – also measured in PABP polyA inh; calls as there; inhibition, %; compound at 20 µM; confirmation repeats;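 mean of two retest wells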
MT1-MMP act inh RFP – further read-out of MT1-MMP act inh, marked with its call; RFP signal change, %; measured here: RFP expression control read;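 0 = vehicle wells; hits needed this value within 50% of zero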
Active calls of the source: *; i = inactive; nt = no result given; & = joins results of further samples; [ ] = remark or other dose.

SMILES	HIV Env fusion	PABP polyA inh	CSC inhib	UUG fidelity	MT1-MMP act inh	MT1-MMP act inh RFP	eIF4H FP inh	Rce1 inhib	others
Cc1cccc(C)c1NC(=S)N/N=C1\CC2CC=CC12 (configuration not stated)	-9	5	-16	-20	-1	3	-1	i
CC(=O)C[C@@H](O)CC(=O)[C@@H]1OC(=O)[C@@H](C)CCCCc2ccccc21	-29	nt	nt	-3	0	1	nt	nt
COC(=O)c1ccc(Oc2cc(C)nc(NCc3ccccc3)n2)cc1	nt	-5	7	-3	-5	-3	-8	i
Cc1ccc(S(=O)(=O)c2nnn(-c3cccc(F)c3)c2N)cc1	11	7	-12	1	3	-1	0	i
COc1ccc(S(=O)(=O)Nc2ccc3oc(C)c(C(=O)O)c3c2)cc1	-2	8	-14	-16	-4	4	-4	i
COC(=O)c1cc(S(=O)(=O)N2CCN(c3cccc(Cl)c3)CC2)c[nH]1	nt	2	4	-29	3	3	-7	i
COc1ccc(NC(=O)N(C)C[C@H]2Oc3ccc(NC(=O)CCN4CCOCC4)cc3C(=O)N([C@@H](C)CO)C[C@H]2C)cc1	12[16.7 µM]	nt	nt	-1&-1	-1	3	nt	nt
COc1ccccc1C(=O)Nc1cc(Cl)ccc1-n1cncn1	-5	10	4	-2	-4	1	12	i
COc1cc(C(=O)O)ccc1OCC(=O)N1CCOCC1	nt	-4	-1	-8	6	8	8	i
CNCCCOc1ccc(Cl)cc1C(C)(C)C	2	4	26	9	-10	-13	12	i
O=C(Cn1ncc2c3ccccc3n(Cc3ccccc3)c2c1=O)N1CCN(c2ccccn2)CC1	nt	-17	13	-4	-1	-1	-11	i
Cc1ccccc1-c1nc2sc(C)c(C)c2c(=O)o1	10	3	-4	-11	-1	1	4	i
CCN(CC1CCCN(CCc2cccc(F)c2)C1)C(=O)c1cc(C)oc1C (configuration not stated)	4	-2	17	-5	-9	2	-7	i
O=C(Nc1ccccc1C(=O)NCc1cccnc1)c1cccc([N+](=O)[O-])c1	-7	-7	nt	nt	0	2	-3	i
Nc1ccc(-c2nnn(Cc3ccccc3F)n2)cc1	-14	-5	4	-10	0	-4	-10	i
C=CCSc1nnc(NC(=O)c2ccc(NC(C)=O)cc2)s1	-13	3	-11	-9	3	4	-4	nt
CC(C)(C)S(=O)N1Cc2cc(=O)n(Cc3ccccc3)c(CCO)c2[C@H]1CCO (some centres not stated)	20	nt	nt	19	-2	4	nt	nt
C/C(=N/NC(=O)CC1N=C(Cc2ccccc2)NNC1=O)c1cccnc1 (configuration not stated)	-2	-3	-18	nt	-3	-1	11	i
Cc1ccc(S(=O)(=O)NCc2cccnc2)cc1C(=O)N1CCCC1	13	4	-21	-4	-1	-1	4	i
CC(NC(=O)C1CCCN(S(=O)(=O)c2cccc3nonc23)C1)c1ccccc1 (configuration not stated)	nt	-4	2	nt	-1	4	-2	i
O=C(Nc1ccc(S(=O)(=O)N2CCOCC2)cc1)c1ccc2c(c1)S(=O)(=O)c1ccccc1C2=O	16	1	-7	nt	-2	0	-12	i
COc1ccc(OC)c(-n2c(-c3cnccn3)n[nH]c2=S)c1	7	-4	-11	-11	0	0	6	i
CN1CCN(C(=O)C2CCCN(c3ncnc4c3nc3n4CCCCC3)C2)CC1 (configuration not stated)	-4	-2	3	-14	-2	0	3	i
NC(=O)C1CCCN(CCc2ccccc2)C1 (configuration not stated)	11	-1	nt	nt	4	6	-13	i
CCOC(=O)N1CCC(NC(=O)c2ccccc2C(=O)O)CC1	9	0	-7	-15	3	6	-2	i

The list goes on; the last 3 above are carried over.
SMILES	HIV Env fusion	PABP polyA inh	CSC inhib	UUG fidelity	MT1-MMP act inh	MT1-MMP act inh RFP	eIF4H FP inh	Rce1 inhib	others
CN1CCN(C(=O)C2CCCN(c3ncnc4c3nc3n4CCCCC3)C2)CC1 (configuration not stated)	-4	-2	3	-14	-2	0	3	i
NC(=O)C1CCCN(CCc2ccccc2)C1 (configuration not stated)	11	-1	nt	nt	4	6	-13	i
CCOC(=O)N1CCC(NC(=O)c2ccccc2C(=O)O)CC1	9	0	-7	-15	3	6	-2	i
Cc1ccc(NC(=S)N(Cc2ccco2)C(C)c2cccs2)c(Cl)c1 (configuration not stated)	21	-1	4	-15	-4	-2	1	i
Cc1ccc(C(=O)Nc2ccc(Oc3ccc(C(=O)O)c(C(=O)O)c3)cc2)cc1C	nt	25	5	4	5	11	4	i
COc1cccc(CN2CCC(CO)(CC3CCCCO3)CC2)c1 (configuration not stated)	2	-6	-5	nt	1	4	-2	i
CCc1cc(S(N)(=O)=O)cc(CC)c1NC(C)=O	7	12	-7	nt	-1	3	-4	i
CCC1CCC/C1=N\NC(=O)CCC(=O)Nc1ccccc1Cl (configuration not stated)	-15	11	0	10	0	5	5	i
CC(C)(C)c1ccc(C(=O)NN=C2CCCC2)cc1	4	-5	-10	-2	-1	3	-12	i
CCNC(=O)c1cc2c(=O)n3cccc(C)c3nc2n(CCc2ccccc2)c1=N	nt	-13	-13	-36	-9	-3	-5	i
Cc1ccc([C@H]2C[C@H](O)[C@@H](n3cc(-c4ccc(F)cc4)nn3)CN2Cc2cccs2)cc1	3	nt	nt	-14	2	1	nt	nt
Cc1cccc(/C(N)=N/OC(=O)c2cccs2)c1	-319	-11	3	-22	-1	-1	2	i
O=C(O)Cc1sc(Nc2cccc3ccccc23)nc1-c1ccccc1	nt	nt	12	-2	0	-1	nt	nt
C[C@H](NC(=O)OCc1ccccc1)c1nnc([C@H](C)NC(=O)OCc2ccccc2)o1	7	4	-3	-3	0	-1	-2	i
CC(C)(C)C1CCC(C(=O)OCC(=O)c2ccc[nH]2)CC1 (configuration not stated)	nt	43	-11	nt	4	0	22	i
NC(Cc1ccc(Cl)cc1)c1csc(Nc2ccc(C(F)(F)F)cn2)n1 (configuration not stated)	10	nt	nt	-9	-2	1	nt	nt
CCOc1ncccc1C(=O)OCCN1C(=O)c2ccccc2C1=O	25	-3	1	-5	5	3	-2	i
CC(=O)Nc1ccc(N/C=C(\C#N)S(=O)(=O)c2ccc(Cl)cc2)cc1	0	1	-6	4	4	-1	5	i
Cn1c(=O)c2c(nc(SCc3nn[nH]n3)n2Cc2ccccc2F)n(C)c1=O	nt	7	nt	-29	-6	5	12	i
CCCNC(=O)C1CC(=O)N(c2ccc(OCc3ccc(F)cc3)cc2)C1 (configuration not stated)	-37	7	-5	-19	6	2	-5	i
Cc1ccc2c(c1)nc(-n1nc(C)cc1C)c1nnnn12	-1	-10	-13	-18	1	-2	-2	i
Cc1ccc(CNC(=O)C(NS(=O)(=O)c2cccc3nsnc23)c2ccccc2)cc1 (configuration not stated)	5	-8	11	-15	-3	-1	-13	i
CCSc1nnc(NC(=O)[C@H](C)NC(=O)c2ccccc2Cl)s1	4	0	-15	nt	1	2	2	i
O=C1CCCC/C1=C/NCc1ccccc1	-4	6	-8	nt	-5	3	8	i
COC(=O)c1ccc(OC)c(CSc2nnc(COc3ccccc3)o2)c1	-2	8	-2	-7	0	-3	-2	i
Cc1ccccc1N(CC(=O)NC1CCCCC1)C(=O)CNC(=O)c1cccs1	11	-5	2	-13	-2	2	-15	i
CN1CCN(Cc2nc3c(c(=O)n(C)c(=O)n3C)n2Cc2cccc3ccccc23)CC1	12	14	nt	6	-29	-10	-3	i
S=c1[nH]nc(-c2ccco2)n1-c1ccccc1Cl	-12	4	-8	nt	0	2	-5	i

Entries from the list above containing a Cl atom, in the order listed:
SMILES	HIV Env fusion	PABP polyA inh	CSC inhib	UUG fidelity	MT1-MMP act inh	MT1-MMP act inh RFP	eIF4H FP inh	Rce1 inhib	others
COC(=O)c1cc(S(=O)(=O)N2CCN(c3cccc(Cl)c3)CC2)c[nH]1	nt	2	4	-29	3	3	-7	i
COc1ccccc1C(=O)Nc1cc(Cl)ccc1-n1cncn1	-5	10	4	-2	-4	1	12	i
CNCCCOc1ccc(Cl)cc1C(C)(C)C	2	4	26	9	-10	-13	12	i
Cc1ccc(NC(=S)N(Cc2ccco2)C(C)c2cccs2)c(Cl)c1 (configuration not stated)	21	-1	4	-15	-4	-2	1	i
CCC1CCC/C1=N\NC(=O)CCC(=O)Nc1ccccc1Cl (configuration not stated)	-15	11	0	10	0	5	5	i
NC(Cc1ccc(Cl)cc1)c1csc(Nc2ccc(C(F)(F)F)cn2)n1 (configuration not stated)	10	nt	nt	-9	-2	1	nt	nt
CC(=O)Nc1ccc(N/C=C(\C#N)S(=O)(=O)c2ccc(Cl)cc2)cc1	0	1	-6	4	4	-1	5	i
CCSc1nnc(NC(=O)[C@H](C)NC(=O)c2ccccc2Cl)s1	4	0	-15	nt	1	2	2	i
S=c1[nH]nc(-c2ccco2)n1-c1ccccc1Cl	-12	4	-8	nt	0	2	-5	i

Additional results.
SMILES	HIV Env fusion	PABP polyA inh	CSC inhib	UUG fidelity	MT1-MMP act inh	MT1-MMP act inh RFP	eIF4H FP inh	Rce1 inhib	others
Cc1ccc(NC(=O)Cn2nnc3ccccc3c2=O)cc1C	3	54	nt	nt	6	3	1	i	eIF4H FP inh retest=-4;PABP polyA inh retest=5
O=C(NCc1cccc2ccccc12)c1cccs1	-54	nt	7	-3	3	0	nt	nt
O=C(Nc1ccc(S(=O)(=O)Nc2nccs2)cc1)C(F)(F)F	2	nt	-1	nt	3	1	nt	i
COC(=O)c1ccc(NC(=O)N(c2ccccc2)c2ccccc2)cc1	-7	2	-24	-4	-2	-4	-12	i
COc1ccsc1C(=O)Nc1ccc(F)cc1F	-40	-7	-21	nt	-4	-2	7	i
CC(=O)N1CCCN(Cc2cn(-c3ccc(C)cc3)nc2-c2cccc(C)c2)CC1	5	3	0	nt	-3	-7	-10	i
COc1ccc(Cc2noc(-c3ccc(OC)c(OC)c3)n2)cc1OC	nt	-5	-5	-8	8	-4	-8	i
COc1ccc(Cn2c(O)c(/C=C3/C=CC=N3)c(=O)[nH]c2=O)cc1	-4	10	29	nt	-13	23	16	i
O=C(O)[C@H]1CCCC[C@H]1C(=O)Nc1ccc(Nc2ccccc2)cc1	-75	-1	-8	-9	11	2	5	i
O=C(O)c1cccc(NC(=O)c2ccccc2)c1	4	nt	nt	-15	0	3	nt	nt
CCOC(=O)C(CC(=O)Nc1nc(C(C)=O)c(C)s1)C(C)c1ccccc1 (configuration not stated)	12	7	1	-5	-15	-13	4	i
O=C(CC1C(=O)NCCN1Cc1cccc(F)c1)NCCCOc1cccnc1 (configuration not stated)	4	14	10	-19	-4	2	17	i
Cc1nc2sccn2c(=O)c1S(=O)(=O)Nc1ccc(N2CCN(C)CC2)cc1	2	-5	-20	-6	-1	7	0	i
Cc1cccc(-n2ccc(=O)c(C(=O)O)n2)c1	-5	1	-3	-27	-2	3	-2	i
O=C(O)c1ccccc1SCc1csc(-c2ccccc2)n1	-2	3	0	-1	0	2	4	i
O=C(NCC(=O)N1CCCC(C(F)(F)F)C1)c1ccco1 (configuration not stated)	nt	nt	-13	-15	1	1	nt	nt
Cc1c(N/C(=N/S(=O)(=O)c2ccc(Cl)cc2)c2ccccc2)c(=O)n(-c2ccccc2)n1C	-14	2	6	nt	nt	nt	17	i
